From PubChem BioAssay
RE007 growth inh: qHTS Assay for Inhibitors of the HIV-1 protein Vpr; 360,000 compounds, 0.21% hits; S. pombe RE007 Vpr strain, BacTiter-Glo ATP luminescence, 24 h; control for the full effect not named in the record; AID 651644, 2012; Potency, µM (highest dose often 92.2 µM), inactives show top-dose activity change, negative = less growth; active = well fitted falling curve with a large enough effect; inconclusive = small, poorly fitted or top-dose-only effect; inactive = no such curve, though single readings can be large or run the other way;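 note: % is set by controls: 0 for no effect and ±100 for the full control effect; nearly all actives have a fitted effect of over 50% in size; the assay follows cell death caused by Vpr and the record does not say whether a fall means rescue or toxicity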
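Fission yeast strain RE007, carrying one chromosomally integrated HIV-1 vpr copy, was seeded at OD 0.01 in PMG+AL medium with 23 nL pinned compound. After 24 h at 30 °C and 99% humidity, viability was read by BacTiter-Glo luminescence.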
NS1 function inh: qHTS Assay for Inhibitors of Influenza NS1 Protein Function; S. cerevisiae slowed by influenza A NS1, growth recovery by OD600; Potency, µM (titrated, usually from 46.1 µM), for the others: at the top dose activity, positive = more growth; 270,000 compounds, 0.4% hits; AID 2326, 2010; note: actives are rising curves; nearly all actives have a fitted effect of over 50% in size
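Growth recovery, yeast-based: influenza A NS1 expressed in S. cerevisiae causes slow growth, and suppressors are detected by OD600. The parent strain without NS1 is used as positive control.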
Marburg entry inh: qHTS for inhibitors of binding or entry into cells for Marburg Virus; Marburg virus pseudotyped entry inhibition, cell reporter; control for the full effect not named in the record; about a third of the inactives were read at about 46 µM; Potency, µM (top dose mostly 37.8 µM), inactives show at the highest dose activity change, negative = inhibition, usual class: inhibitors; 300,000 compounds, 1.8% hits; AID 540276, 2011; active = well fitted inhibition curve with a large enough effect; inconclusive = small, poorly fitted or top-dose-only effect, or effect the other way; inactive = flat fitted curve, though single readings scatter; tested in HEK293 cells; about a fifth of its hits are not listed in these tables; note: % is set by controls: 0 for no effect and ±100 for the full control effect; luciferase read-out
SARS PLP yeast: qHTS of Yeast-based Assay for SARS-CoV PLP; AID 485353, 2010; S. cerevisiae expressing SARS-CoV PLpro, growth rescue; control for the full effect not named in the record; Potency, µM (titrated, usually from 32.9 µM), inactives show at the top dose activity, positive = growth rescue; 330,000 compounds, 0.19% hits; note: 0% is about no effect; nearly all actives have a fitted effect of over 55% in size; growth read by luminescence after 48 h
StopGo reporter: High Throughput Screening for Foot and Mouth Disease Virus Antivirals; 410,000 compounds, 1.2% hits; Potency, µM (titrated, usually from 57.9 µM), without a hit: at the highest dose signal change, negative = less light; human cells with a luciferase reporter of 2A StopGo recoding; control for the full effect not named in the record; AID 1159524, 2015; active = well fitted falling curve with a large enough effect; inconclusive = small, poorly fitted or top-dose-only effect; inactive = no such curve, though single readings can be large or run the other way; tested in HEK293T cells; note: % is set by controls: 0 for no effect and ±100 for the full control effect; nearly all actives have a fitted effect of over 45% in size; luciferase light after 4 h
Lassa entry inh: qHTS for Inhibitors of binding or entry into cells for Lassa Virus; AID 540256, 2011; Potency, µM (titrated, usually from 37.9 µM), without a hit: top-dose activity change, negative = inhibition, hits mostly inhibitors; 300,000 compounds, 1.2% hits; Lassa virus pseudotype entry inhibition, cell reporter; control for the full effect not named in the record; active means well fitted inhibition curve with a large enough effect; inconclusive means small, poorly fitted or top-dose-only effect, or effect the other way; inactive means flat fitted curve, though single readings scatter; tested in HEK293 cells; note: % is set by controls: 0 for no effect and ±100 for the full control effect; nearly all actives have a fitted effect of over 50% in size; luciferase read-out
Cruzain Triton: qHTS Assay for Promiscuous and Specific Inhibitors of Cruzain (with detergent). Potency, µM, inactives show max response, negative = inhibition, usual class: inhibitors. AID 1478, 2009. purified cruzain, Z-FR-AMC fluorescence, 0.01% Triton. 200,000 compounds, 0.43% hits. Cruzipain (Trypanosoma cruzi), P25779; active = well fitted curve in the direction sought with a large enough effect; inconclusive = small, poorly fitted or top-dose-only effect, or another doubt; inactive = no such curve, though single readings can be large; an effect the other way counts as inactive or inconclusive;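 note: plate controls were neutral wells for no effect and buffer without enzyme for full effect; nearly all actives have a fitted effect of over 40% in size; top concentration of the series not given in the record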
Target sequence (P25779 123-467 limits assumed): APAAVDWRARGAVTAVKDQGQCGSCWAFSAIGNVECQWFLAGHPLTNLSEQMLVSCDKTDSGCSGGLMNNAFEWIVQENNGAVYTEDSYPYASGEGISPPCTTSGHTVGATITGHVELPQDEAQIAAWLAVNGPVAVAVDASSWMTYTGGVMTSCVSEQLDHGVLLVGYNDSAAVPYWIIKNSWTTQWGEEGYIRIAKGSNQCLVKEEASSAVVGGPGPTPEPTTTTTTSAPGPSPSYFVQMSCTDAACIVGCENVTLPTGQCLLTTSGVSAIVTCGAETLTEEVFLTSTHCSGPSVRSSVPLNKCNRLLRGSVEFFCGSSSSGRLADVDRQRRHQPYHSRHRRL
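Detergent-containing run (0.01% Triton X-100) in acetate buffer pH 5.5 with 5 mM DTT: enzyme at 1.5 nM final, 15 min compound preincubation at room temperature, then 2 uM Z-FR-AMC substrate. Activity taken as 60 s fluorescence increase at 360/450 nm.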
Cruzain inh noDet: qHTS Assay for Promiscuous and Specific Inhibitors of Cruzain (without detergent); purified cruzain, Z-FR-AMC fluorescence, no detergent; Potency, µM, for inactives: max response, negative = inhibition, actives largely listed as inhibitors; AID 1476, 2009; Cruzipain (Trypanosoma cruzi), P25779; 200,000 compounds, 2.3% hits; active = well fitted curve in the direction sought with a large enough effect; inconclusive = small, poorly fitted or top-dose-only effect, or another doubt; inactive = no such curve, though single readings can be large; an effect the other way counts as inactive or inconclusive;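 note: plate controls were enzyme without inhibitor for no effect and buffer without enzyme for full effect; nearly all actives have a fitted effect of over 40% in size; top concentration of the series not given in the record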
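Detergent-free condition (0.00005% Triton X-100) in acetate buffer pH 5.5 with DTT. 1.5 nM enzyme and compound were pre-mixed 15 min, then 2 uM Z-FR-AMC substrate added; reaction progress from fluorescence change between first and third reads (60 s).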
* hit, by the source's call; ? = inconclusive; · = not tested or not shown; & = joins results of further samples; [ ] = dose if it differs, or a comment. Unless noted, calls come from the whole dose curve; as a rule, active means well fitted rising curve with a large enough effect; inconclusive means small, poorly fitted or top-dose-only effect; inactive means no such curve, though single readings can be large or run the other way. Potency is the fitted concentration of half-maximal effect.

SMILES	RE007 growth inh	NS1 function inh	Marburg entry inh	SARS PLP yeast	StopGo reporter	Lassa entry inh	Cruzain Triton	Cruzain inh noDet
CC(=O)Nc1ccc(S(=O)(=O)N2CCN(C(=O)c3ncoc3-c3cccc(C)c3)CC2)cc1	29%	-12%	?	-7%	-23%	·	·	·
Cc1c(Cl)cccc1NC(=O)CCCN1C(=O)CCC1=O	1%	-3%	-1%	8%	8%	24%	0.5%	-1%
COc1ccc(/C=N\NC(=O)c2ccccc2OC)cc1COc1ccccc1C	10%	-5%	?	1%	-13%	6%[46.1 µM]	·	·
Cc1ccc(Cl)cc1NC(=O)NCc1cccnc1	-11%	2%	?	-1%	5%	7%[46.1 µM]	·	·
COc1nc(-c2ccccc2)nnc1-c1ccccc1	-13%	-37%	?	-4%	34%[activator]	?	·	·
CC(C)[C@H](NC(=O)c1ccco1)C(=O)N(C)Cc1c(F)cccc1Cl	17%	7%	18%[46.1 µM]	-4%	-9%	-12%	·	·
C#CC(=O)N(c1ccc(OC)c(OC)c1)C(C(=O)NC1CCCC1)c1cccs1 (stereo not given)	26%	6%	3.5µM*	-1%	?	7.9µM*	-5.2%	8%
CC(=O)N1CCN(CCS(=O)(=O)c2ccc(Br)cc2)CC1	-7%	·	-6%	-3%	-21%	7%	·	·
C/C(=N\N1CCCCCC1)c1c(O)n(C2CCCCC2)c(=O)[nH]c1=O	15%	1%	-20%[46.1 µM]	0%	-10%	?	·	·
Cc1cc(C)c(-c2cc(C(=O)Nc3c(C)n(C)n(-c4ccccc4)c3=O)[nH]n2)c(O)c1	3%	-4%	16%&16%	-1%	-4%	8%	10%	-2%
CCOC(=O)C1CCN(S(=O)(=O)c2c[nH]c(=O)[nH]c2=O)CC1	-5%	·	-11%[46.1 µM]	0%	-5%	1%	·	·
Cc1cc(Br)ccc1NC(=O)C1CSC2(C)CCC(=O)N12 (stereo not given)	-1%	·	-3%	-3%	-7%	-4%	·	·
CC(C)C[C@@H](C(=O)NCC1CCCO1)N1C(=O)N2CCc3c([nH]c4ccccc34)[C@@]2(C)C1=O (stereo not given in full)	2%	-8%	·	-3%	-21%	·	·	·
NC(=O)C1CCN(CC(=O)Nc2ccccc2N2CCOCC2)CC1	15%	4%	·	0%	-14%	·	·	·
CC1(C)NC(=O)N(CC(=O)Nc2ccc(-n3cnnn3)cc2)C1=O	-2%	·	11%[46.1 µM]	-1%	-6%	23%[46.1 µM]	·	·
COc1ccc(C(C(=O)NC2CCCC2)N(CCO)C(=O)Cn2nnc(-c3ccc(C)o3)n2)cc1 (stereo not given)	-7%	-10%	4%[46.1 µM]	2%	7%	14%[46.1 µM]	·	·
CC#CC(=O)N1CCC(n2nccc2NC(=O)c2ccc3c(c2)OCO3)CC1	11%	3%	·	2%	11%	·	·	·
O=C(Cn1c(-c2cncs2)nc2ccccc21)NC1CCCC1	-8%	-7%	15%	3%	4%	-8%	3.2%	-4%
COc1ccc(-c2cc(C(=O)Nc3cc(S(=O)(=O)N4CCOCC4)ccc3N3CCOCC3)c3ccccc3n2)cc1	-5%	6%	·	0%	-20%	·	·	·
Cc1cc(NC(=O)c2ccc(F)cc2)no1	9%	8%	·	-4%	65%[activator]	·	·	·
Cc1ccc(S(=O)(=O)NCC(=O)OCC(=O)N(CCC#N)c2ccccc2)cc1	-1%	·	19%	6%	-5%	-7%[46.1 µM]	·	·
COCCn1c(SCC(=O)Nc2ccc(S(N)(=O)=O)cc2)nc2ccccc21	10%	1%	?	10%	-4%	-36%	2.9%	11%
CC(=O)Nc1cccc(OCC(=O)Nc2ccc(F)cc2)c1	4%	-2%	8%	2%	40%[activator]	6%	2.6%	0%
O=C(CSc1nnc2c(n1)[nH]c1ccc(S(=O)(=O)N3CCOCC3)cc12)Nc1ccc(F)c(F)c1	-2%	·	?	-2%	-6%	?	·	·
Cc1ccc(NC(=O)CCS(=O)(=O)c2cccc3nonc23)c(Br)c1	-7%	-10%	-8%[46.1 µM]	15%	29%	-3%	·	·
Later entries
SMILES	RE007 growth inh	NS1 function inh	Marburg entry inh	SARS PLP yeast	StopGo reporter	Lassa entry inh	Cruzain Triton	Cruzain inh noDet
COCCNc1ncnc2c1cnn2Cc1ccccc1Cl	1%	2%	·	-2%	?	·	·	·
Cn1nc(-c2ccccc2)c(C(=O)Nc2ccc(Cl)cc2)c1Cl	3%	-76%	-23%	3%	7%	-15%	6.7%	?
O=C(c1cc2c(s1)CCCC2)N1CCN(S(=O)(=O)c2ccccc2)CC1	-7%	·	27%	-1%	-1%	13%	·	·
CSCCC(NC(C)=O)C(=O)Oc1ccc2c3c(c(=O)oc2c1)CCCC3 (stereo not given)	5%	-30%	8%	-5%	-13%	0%	-3.0%	?
CCOC(=O)c1cnc2c(Cl)cc(Cl)cc2c1Nc1ccccc1OC	·	·	-28%[46.1 µM]	·	-19%	1%[46.1 µM]	-2.2%	-1%
COc1ccc(NC(=O)CCNC(C)=O)cc1NS(=O)(=O)c1ccc(F)cc1	0%	-11%	-1%	5%	-16%	-4%	2.2%	-9%
CSCSC1=C(C#N)C(c2ccccc2Cl)C(C(C)=O)=C(C)N1 (stereo not given)	10%	-42%	-12%&-3%	5%	-10%	?	-8.6%	-8%
CCOc1ncccc1C(=O)Nc1ccc(Cl)c(S(=O)(=O)N2CCCC2)c1	-8%	·	?	0%	?	0%	·	·
Cc1cc(NC(=O)c2ccc(Cl)c(S(=O)(=O)N3CCOCC3)c2)no1	-3%	·	-3%	0%	-9%	1%	·	·
Cn1cnc([N+](=O)[O-])c1SCCO	3%	0%	16%	1%	-6%	4%	·	·
Cn1c(=O)c2c(nc(CN3CCN(C(=O)c4ccco4)CC3)n2CC(=O)C(C)(C)C)n(C)c1=O	12%	0%	7%[46.1 µM]	0%	38%[activator]	4%[46.1 µM]	·	·
CCCC(=O)N1c2ccccc2-c2nnc(SC)nc2OC1c1sccc1C (stereo not given)	·	·	-4%[46.1 µM]	·	-21%	0%[46.1 µM]	-2.3%	1%
CC(NC(=O)c1ccco1)C1COc2ccccc2O1 (stereo not given)	4%	10%	0%	-6%	0%	10%	-3.2%	5%
Cc1ccccc1NC(=O)CCN1CCCC1	-3%	2%	·	0%	-9%	·	·	·
COc1ccc(/C=C/C(=O)NC(CCSC)C(=O)O)cc1 (stereo not given)	10%	·	?	-1%	16%	-2%	·	·
CCn1cc(C2N3CC4(C)CN2CC(C)(C3)C4=O)c2ccccc21 (stereo not given)	6%	-7%	·	2%	-4%	·	2.0%	6%
COc1ccccc1NC(=S)N(Cc1ccc(C)cc1)Cc1ccccn1	6%	·	?	-8%	0%	-29%[46.1 µM]	·	·
O=C(CCC(=O)Nc1ccc(Br)cc1)N/N=C/c1ccc(O)cc1	4%	?	·	0%	-21%	·	·	·
CCC(C)/C(C)=N/NC(=O)c1ccc(COc2ccc(Cl)c(C)c2)cc1 (stereo not given)	?	?	?	-43%	-1%	19%	-5.5%	8%
CC1CCN(C(=O)COC(=O)CNC(=O)c2ccccc2F)CC1	4%	·	?	1%	-3%	?	·	·
Cc1ccccc1C(=O)NC(=S)NC1CCS(=O)(=O)C1 (stereo not given)	4%	11%	·	5%	-3%	·	·	·
CC1CCCC(C)N1C(=O)COC(=O)c1n[nH]c(=O)c2ccccc12 (stereo not given)	2%	·	-19%	-4%	6%	21%	·	·
Cc1c(CCOC(=O)c2ccc([N+](=O)[O-])cc2)sc[n+]1CC(=O)c1ccccc1	-22%	·	-12%[46.1 µM]	3%	-2%	-1%[46.1 µM]	·	·
CCCc1nnc(NC(=O)CCC(=O)NC2CCCC2)s1	-17%	8%	·	5%	-8%	·	·	·
Cc1cccc(NC(=O)C(=O)NCC(c2ccc3c(c2)OCO3)N2CCOCC2)c1C (stereo not given)	·	·	·	·	-7%	17%[46.1 µM]	-2.0%	1%
Remaining list, next part
SMILES	RE007 growth inh	NS1 function inh	Marburg entry inh	SARS PLP yeast	StopGo reporter	Lassa entry inh	Cruzain Triton	Cruzain inh noDet
COc1ccccc1CC(=O)N(CCC1=CCCCC1)c1c(N)n(Cc2ccccc2)c(=O)[nH]c1=O	-18%	·	-19%	-3%	-7%	3%[46.1 µM]	·	·
Cc1cccc(Nc2cc(=O)n(C)c(=O)[nH]2)c1	-19%	8%	-30%[46.1 µM]	2%	-5%	-4%[46.1 µM]	·	·
CCOc1ccc(S(=O)(=O)N2CCCCC2)cc1NC(=O)Cc1ccsc1	12%	·	-4%	9%	9%	?	·	·
COc1ccc(C(CC(=O)N2CCCC2)c2c(O)cc(OC)cc2OC)cc1 (stereo not given)	-8%	3%	·	2%	-2%	·	·	·
Clc1ccccc1CSc1nnc(-c2ccncc2)o1	?	-50%	?	-6%	67%[activator]	11%	-5.6%	-2%
CCC(C)NC(=O)C1CCC(=O)N(c2cc(OC)c(OC)c(OC)c2)C1c1ccc(OC)cc1 (stereo not given)	14%	-3%	44%&44%	1%	-8%	-4%	3.2%	19%
O=C(O)c1cccc(NC(=O)c2cn(-c3ccccc3)nc2-c2ccc(F)cc2)c1	-8%	-1%	?	3%	25%	16%	·	·
COc1cc2ccccc2ccc1=NO	0%	·	2%[46.1 µM]	·	2%	-5%[46.1 µM]	·	·
N#Cc1ccc(COn2nnc3ccccc32)cc1	-27%	-6%	11%[46.1 µM]	-4%	54%[activator]	9%	·	·
Cc1ccc(Nc2nc3c([nH]2)c(=O)n(C)c(=O)n3C)cc1	-4%	-5%	?	3%	3%	1%	2.6%	-5%
Cc1cccc(OCC(=O)Nc2sc3c(c2C#N)CCC3)c1	-4%	13%	30%	-4%	·	17%	-12%	1%
O=C(COc1cccc2ccccc12)N1CCN(c2ccccc2)CC1	-18%	-64%	-1%	-8%	-19%	-16%	-5.6%	6%
Cc1nnc(NC(=O)C2CCCN(c3ncccn3)C2)s1 (stereo not given)	-11%	-2%	-1%	-13%	-9%	19%	3.2%	0%
CC(=O)c1ccc(NC(=O)CSc2nnc(Cn3c(=O)sc4ccccc43)n2C)cc1	-3%	9%	·	-15%	-2%	·	-5.2%	1%
